gsp ag: activates gsp, the McCune-Albright syndrome mutation | Potency, µM (titrated, usually from 76.9 µM), for inactives: at the highest dose activation (cAMP increase), actives largely listed as activators | 340,000 compounds, 0.13% hits | gsp mutant cells, cAMP HTRF, 30 min; control for the full effect not named in the record; active = well fitted activation curve with a large enough effect; inconclusive = small, poorly fitted or top-dose-only effect, or another doubt; inactive = no such curve, though single readings can be large or run the other way; cell line not stated here;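 also: phosphodiesterase inhibitor Ro 20-1724 added with compounds to block cAMP breakdown; potency is read from the fitted curve at half-maximal effect; nearly all actives have a fitted effect of over 60% in size; about a fifth of the inactives were tested at one dose only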
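Cells in DMEM/10% FBS with G418 were pretreated with compounds in DMSO plus […] (300 uM stock) for 30 min at 37C. cAMP was measured by HTRF (cAMP-d2 plus anti-cAMP antibody-K) after 30 min at room temperature.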
TRPV1 potentiator: potentiators of human vanilloid receptor 1 (TRPV1). TRPV1-expressing cells, Fluo-8 calcium influx, capsaicin EC20 potentiation; host cell line not named in the record; control for the full effect not named in the record. potentiation, % at 8.33 µM. 320,000 compounds, 0.02% hits. AID 540277; active means potentiation above 80%; inconclusive means 30% to 80%; inactive means below 30%; also: 0% is about no effect
Target sequence (Q8NER1 whole entry, looked up): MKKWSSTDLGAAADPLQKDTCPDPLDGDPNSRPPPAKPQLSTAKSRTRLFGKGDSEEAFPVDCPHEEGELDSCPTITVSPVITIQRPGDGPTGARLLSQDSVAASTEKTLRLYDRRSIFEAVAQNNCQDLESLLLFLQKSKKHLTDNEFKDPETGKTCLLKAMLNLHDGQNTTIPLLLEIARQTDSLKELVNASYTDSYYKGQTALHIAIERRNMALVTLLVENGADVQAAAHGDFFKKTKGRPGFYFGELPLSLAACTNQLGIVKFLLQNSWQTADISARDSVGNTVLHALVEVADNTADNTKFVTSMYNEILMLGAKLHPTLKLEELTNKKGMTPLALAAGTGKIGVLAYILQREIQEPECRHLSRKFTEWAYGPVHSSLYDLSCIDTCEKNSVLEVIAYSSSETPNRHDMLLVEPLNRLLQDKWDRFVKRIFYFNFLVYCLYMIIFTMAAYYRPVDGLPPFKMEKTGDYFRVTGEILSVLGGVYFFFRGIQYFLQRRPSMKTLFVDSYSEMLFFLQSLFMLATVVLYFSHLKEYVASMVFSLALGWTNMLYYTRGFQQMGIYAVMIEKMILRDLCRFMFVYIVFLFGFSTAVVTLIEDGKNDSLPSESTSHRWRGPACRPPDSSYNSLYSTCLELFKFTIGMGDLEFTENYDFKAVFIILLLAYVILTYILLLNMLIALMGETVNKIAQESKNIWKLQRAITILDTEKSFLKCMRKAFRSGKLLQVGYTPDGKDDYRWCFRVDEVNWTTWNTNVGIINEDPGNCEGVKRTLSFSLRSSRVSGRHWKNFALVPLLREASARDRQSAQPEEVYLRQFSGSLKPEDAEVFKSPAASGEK
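TRPV1-expressing cells were cultured overnight at 35.5C and loaded with Fluo-8 calcium dye for 40 to 90 min at room temperature. After a 10 s baseline, compound was added and calcium influx was read kinetically for 3 min (ex 480/em 520 nm).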
ClpP mod: qHTS Assay for Activators of ClpP; ATP-dependent Clp protease proteolytic subunit (Bacillus subtilis (strain 168)), P80244; purified B. subtilis ClpP, FRET peptide cleavage, 20 min; Potency, µM (titrated, usually from 57.5 µM), for the others: at the highest dose activity change, negative = active; 340,000 compounds, 1.9% hits; AID 651965, 2013; active = well fitted falling curve with a large enough effect; inconclusive = small, poorly fitted or top-dose-only effect; inactive = no such curve, though single readings can be large or run the other way; also: potency is read from the fitted curve at half-maximal effect; the source files actives as falling curves though it sought activators and does not explain the sign; nearly all actives have a fitted effect of over 65% in size; many hits overshoot -100%
Target sequence (P80244 whole entry, looked up): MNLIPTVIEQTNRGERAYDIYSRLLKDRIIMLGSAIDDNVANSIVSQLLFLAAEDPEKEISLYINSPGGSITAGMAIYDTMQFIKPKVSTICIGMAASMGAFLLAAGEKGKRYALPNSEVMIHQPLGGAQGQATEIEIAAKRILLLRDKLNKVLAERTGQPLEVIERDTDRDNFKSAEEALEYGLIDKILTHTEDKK
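Buffer: 100 mM Tris/HCl pH8, 100 mM KCl, 0.05% low protease BSA, 2.5% glycerol, 0.01% Tween-20. ClpP 10 microg/mL final; 20 min RT; delta FRET normalized to ADEP and DMSO controls.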
Menin MLL FP FL: inhibitors of human menin-MLL interaction, wild-type MLL peptide; Fluorescence polarization, fluorescein-MLL peptide displacement from menin; FP activity change, % at 61.4 µM; 290,000 tested, under 10 active; AID 1766; inconclusive = falling polarisation curve, or a change in total fluorescence; inactive = total fluorescence flat and polarisation flat or rising; no compound was filed as active; the % refers to the polarisation; negative = inhibition;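 also: % of control where 0% means no effect; inhibitors lower the polarisation; unlabelled MLL peptide was the positive control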
Sfp PPTase inh: inhibitors of Bacillus subtilis Sfp phosphopantetheinyl transferase | Q9F4F7 | Biochemical Sfp PPTase activity, qHTS | Potency, µM, without a hit: max response, negative = inhibition, most hits filed as inhibitors | 310,000 compounds, 3.5% hits; active = well fitted inhibition curve with a large enough effect; inconclusive = small, poorly fitted or top-dose-only effect, or another doubt; inactive = no such curve, though single readings can be large or run the other way;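 also: the enzyme is Sfp with the accession as filed and its product quenches rhodamine fluorescence; potency is read from the fitted curve at half-maximal effect; 0% = enzyme reaction without inhibitor and -100% = no enzyme wells; top concentration of the series not given in the record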
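Fluorescence-quenching assay: 15 nM Sfp-PPTase preincubated 15 min at room temperature with compound, then 5 uM rhodamine-CoA and 12.5 uM BHQ-2-labelled YbbR peptide added. Fluorescence (ex 525/em 598 nm) read at start and after 30 min; difference gives rate.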
TRPML1 blocker: blocks the human TRPML1 channel. Q9GZU1. TRPML1-inducible cells, Ca2+ dye fluorescence, FDSS; stronger effect = lower value; inhibition of EC80 agonist-evoked calcium signal. activity change, negative = inhibition, % (concentration not given with the values). 390,000 compounds, 0.02% hits. AID 624415; in the data active means activity change below about -50%; inconclusive means about -30% to -50%; inactive means above about -30%;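 also: stimulus is agonist 54-4 at its EC80 concentration; % is scaled to controls: 0 for no effect and ±100 for the full control effect; the text of the record puts the active cut at -80%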
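TRPML1-DL cells, Tet-induced overnight (~16 h, 37 °C) at 1,500 cells/well, were loaded with Ca8 no-wash dye plus quencher for 45-90 min at room temperature. Compounds were pinned during FDSS kinetic reading; agonist 54-4 at EC80 (4 uM final) then added.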
gsp antagonist: antagonists of gsp mutant (McCune-Albright syndrome); gsp-mutant cells, cAMP HTRF, 30 min; control for the full effect not named in the record; 340,000 compounds, 0.4% hits; Potency, µM (titrated, usually from 76.9 µM), without a hit: top-dose activity change, negative = inhibition, most hits filed as inhibitors; active = falling curve of any shape with a large fitted effect; inconclusive = falling curve, mostly with a smaller effect; inactive = flat or rising curve; cell line not stated here;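 also: intracellular cAMP measured with PDE inhibitor Ro 20-1724 present during compound exposure; potency is read from the fitted curve at half-maximal effect; % is scaled to controls: 0 for no effect and ±100 for the full control effect; nearly all actives have a fitted effect of over 65% in size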
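G418-selected cells were plated in DMEM/10% FBS for 16-24 h at 37C, then treated with compounds plus the PDE inhibitor […] (300 uM solution added) for 30 min at 37C. Intracellular cAMP was measured by HTRF after 30 min lysis at room temperature.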
The depositor's hits bear a star; ? = inconclusive; . = not tested or not shown; & = joins results of further samples; [ ] = another dose, or the depositor's remark.

SMILES	gsp ag	TRPV1 potentiator	ClpP mod	Menin MLL FP FL	Sfp PPTase inh	TRPML1 blocker	gsp antagonist
O=C(Nc1ccccc1[N+](=O)[O-])c1ccc(S(=O)(=O)N2CCCC2)cc1	-5.1%	-5.2	-0.2%	.	3.3%	-3.3	-19.5%
C[C@H](CO)N1C[C@H](C)[C@@H](CN(C)S(=O)(=O)c2ccccc2)Oc2ccc(NC(=O)Cc3ccccc3)cc2C1=O	-19.2%	.	0.1%	.	.	-10.4	-14.9%
COC(=O)c1sc(Nc2ccccc2)nc1C	-6.3%	-17.4	-4.9%	-1.6	2.0%	5.8	-3.3%
Cc1oc2c(C)c(O)ccc2c(=O)c1-c1nncn1-c1ccccc1	2.9%	13.0	-0.5%	?	5.4%	23.7	-1.8%
O=C(CCCCCBr)N1CCC(CC2CC(c3cccc(Br)c3)=NO2)(C(=O)NCC2CCCCC2)CC1 (stereo not given)	21.5%	-2.8	0.3%	-0.7	-9.9%	-24.2	-12.0%
FC(F)(F)c1ccc(N2CCOCC2)c(NC2=NCCCCC2)c1	-4.5%	-2.3	0.3%	2.1	-3.5%	8.2	12.6%
O=C(Cn1cc2c(n1)CCCCC2)NC1CCCCCC1	-42.5%[inhibitor]	-18.2	-2.9%	0.5	0.2%	52.7	4.5%
COc1ccc(CCNC(=O)C(=O)NCC2OCCN2S(=O)(=O)c2ccc(Br)cc2)cc1OC (stereo not given)	14.7%	1.3	-2.3%	0.6	-6.6%	-6.8	15.1%
CN=C(Nc1cc(C)nn1-c1ccccc1)c1ccc(F)cc1	14.3%	-20.1	-2.1%	2.5	21.5%	-8.7	8.6%
NC(=O)C1(Nc2ccc(Br)cc2)CCCC1	5.6%	.	.	.	.	8.2	-3.5%
CC(C)CN(c1ccccc1)S(=O)(=O)c1nnc(NC(=O)c2ccco2)s1	3.1%	0.1	-6.4%&-8.0%	-5.7	10.0%	9.6&14.5	-6.7%
CCCc1nnc(NC(=O)CCC(=O)N2CCCCCC2)s1	?	1.8	-5.2%	-3.0	-10.6%	-4.6	0.1%
CN(CCOC(=O)c1ccc2c(c1)OCCO2)C(C)(C)C	-12.4%	-0.3	-10.4%	4.2	9.7%	-11.0	5.3%
Cc1cn(CC(=O)NCCCN2CCCC2=O)c(=O)[nH]c1=O	.	.	-0.7%	.	.	13.5	1.8%
CC(Oc1cccc(Cl)c1)C(=O)NCCCCc1ccccc1 (stereo not given)	-15.4%	-6.7	-4.2%	1.5	-0.4%	7.2	6.6%
COc1ccc(N2CCN(C(c3nnnn3CCc3ccccc3)C(C)C)CC2)cc1 (stereo not given)	8.6%	-7.8	-3.6%	-2.4	3.8%	12.9	-11.1%
Cc1cc(C(=O)OCC(=O)NC(=O)c2cccn2C)c2ccccc2n1	4.7%	?	-1.3%	2.3	-6.0%	-2.0	6.3%
CC[C@]12c3[nH]c4cc(CCC(=O)N(C)C)ccc4c3CCN1C(=O)[C@@H](CC(=O)NCCCN(C)C)C[C@@H]2C(=O)N1CCN(C(=O)c2ccco2)CC1	.	.	-2.6%	.	.	6.6	6.9%
C/C(N)=C(/C#N)C(=O)CSc1nc(-c2ccccc2)c(-c2ccccc2)o1	-10.8%[15.4 µM]	-2.4	.	5.8	-0.5%	22.1	?
C=CCNc1nc(C(=O)OC(C)C(=O)c2ccc(C)cc2)cs1 (stereo not given)	-2.2%	.	-4.9%	.	.	-7.8	-1.7%
O=C(C1CCCN(Cc2ccccc2F)C1)N1CCc2ccccc2C1 (stereo not given)	-0.9%[15.4 µM]	-6.7	.	5.6	-6.3%	-0.6	10.3%
Cc1ccc2c(CC(=O)Nc3ccc4nc(N5CCOCC5)sc4c3)coc2c1	-28.7%	.	4.1%	.	.	4.3	.
COc1ccc(OC)c(NC(=O)CSc2nc(=O)n(CCN3CCOCC3)c3c2CCCC3)c1	-7.1%[15.4 µM]	-2.7	.	.	.	4.3	-17.9%
COc1ccc(OC)c(C(C)NC(=S)Nc2ccc(S(=O)(=O)Nc3ncccn3)cc2)c1 (stereo not given)	1.1%[15.4 µM]	2.2	0.9%	-5.5	25.4%	21.6	-0.9%
NS(=O)(=O)c1ccc(N=Cc2c(O)n(-c3nccs3)c(=O)c3ccccc23)cc1	-9.3%[15.4 µM]	12.6	.	9.7	25.9%	-4.5	-4.9%
CC1(C)CC(=O)C(CCCN2C(=O)c3ccccc3C2=O)C(=O)C1	-4.7%	.	2.1%	2.4	15.1%	12.3	4.2%
Cc1ccc(OCC(=O)Nc2cccc3ccccc23)c([N+](=O)[O-])n1	-6.3%	.	-5.2%	.	.	-12.5	-6.3%
CN1CCN(C(=O)C(Cc2ccccc2)NS(=O)(=O)c2ccc3c(c2)CCC(=O)N3)CC1 (stereo not given)	-12.4%	.	-2.4%	11.4	3.7%	-4.2	6.1%
COc1ccc(NC(=O)c2ccc3c(c2)NC(=O)CO3)cc1OC	2.1%[15.4 µM]	-6.1	0.4%	1.2	16.8%	14.9	-21.3%
Cc1ccc(C(=O)c2cc([N+](=O)[O-])ccc2N2CCCCC2)cc1	-4.9%	-4.4	-7.9%	0.5	-15.2%	67.7	-3.6%
O=C(COC(=O)C1CCN(S(=O)(=O)c2cccs2)CC1)NCc1ccccc1	15.8%	-0.6	.	-0.6	9.5%	-9.3	-6.3%
O=C(Nc1ccccc1N1CCCC1)c1cccc(Cl)c1Cl	1.6%	-10.3	.	18.0	-5.6%	-2.2	-1.9%
CC(=O)c1ccc(OC(C)C)c(CN2CCCCC2)c1	20.8%	-1.1	1.4%	2.8	3.6%	-8.9	-12.0%
Cn1cnnc1SCC(=O)N1CCc2ccccc21	0.0%	5.7	-0.3%	0.8	13.9%	11.9	1.1%
Cc1ccc(C(=O)OCC(=O)NCc2ccc(Cl)cc2)s1	-46.1%[inhibitor]	.	0.4%	.	.	-4.4	.
O=C(O)CC(c1cccc2ccccc12)N1Cc2ccccc2C1=O (stereo not given)	-4.8%[15.4 µM]	8.3	.	3.0	23.0%	15.2	3.0%
CC(=O)Nc1cccc(NC(=O)c2c(-c3c(Cl)cccc3Cl)noc2C)c1	-8.5%	5.1	0.5%	-0.3	6.8%	-7.2	-7.3%
CCCCCCCOC1(c2ccccc2)OC(=O)c2ccccc21 (stereo not given)	-8.7%	-2.8	1.0%	0.5	3.7%	49.0	-3.8%
O=C(CSc1nc2ccccc2s1)N/N=C/c1ccccc1C(=O)O	3.3%	.	-4.0%	-0.8	10.6%	1.7	-7.1%
CC(=O)Nc1ccc(S(=O)(=O)NCc2cccnc2)cc1	-0.7%[15.4 µM]	0.4	-1.2%	4.3	11.3%	10.1	22.3%
COCC(=O)Nc1ccc(Br)cc1	-28.4%	14.0	1.0%	-0.3	15.1%	-2.4	4.2%
Cc1ccc(C(=O)OC2OC(=O)C(Cl)=C2N2CCOCC2)cc1 (stereo not given)	-1.2%[15.4 µM]	0.7	-2.0%	1.0	-4.1%	9.0	5.9%
O=C1C2C3c4ccccc4C(c4ccccc43)C2C(=O)N1c1ccncc1 (stereo not given)	7.8%	4.2	-1.9%	0.6	-3.1%	2.5	-14.7%
Cc1ccc(C)c(OCC(=O)Nc2cc(NC(=O)COc3cc(C)ccc3C)cc(C(=O)O)c2)c1	-6.6%[15.4 µM]	-4.0	0.7%	0.7	-25.6%	-20.0	5.0%
COc1ccc(-c2cc(C(=O)N3CCN(C(c4ccccc4)c4ccccc4)CC3)no2)cc1OC	-16.2%	13.4	?	-1.8	2.3%	-20.6	-9.6%

Sorted by the number under TRPML1 blocker (low to high): 5 from the list above
compound | gsp ag | Menin MLL FP FL | Sfp PPTase inh | TRPML1 blocker | gsp antagonist
CC(=O)c1ccc(OC(C)C)c(CN2CCCCC2)c1 | 20.8% | 2.8 | 3.6% | -8.9 | -12.0%
Cc1ccc(C(=O)OCC(=O)NCc2ccc(Cl)cc2)s1 | -46.1%[inhibitor] | . | . | -4.4 | .
Cc1ccc(C(=O)OC2OC(=O)C(Cl)=C2N2CCOCC2)cc1 (stereo not given) | -1.2%[15.4 µM] | 1.0 | -4.1% | 9.0 | 5.9%
Cn1cnnc1SCC(=O)N1CCc2ccccc21 | 0.0% | 0.8 | 13.9% | 11.9 | 1.1%
O=C(O)CC(c1cccc2ccccc12)N1Cc2ccccc2C1=O (stereo not given) | -4.8%[15.4 µM] | 3.0 | 23.0% | 15.2 | 3.0%

Carrying on.
SMILES	gsp ag	TRPV1 potentiator	ClpP mod	Menin MLL FP FL	Sfp PPTase inh	TRPML1 blocker	gsp antagonist
O=C(Nn1cnc2ccccc2c1=O)c1ccccc1F	-44.0%[inhibitor]	-3.0	0.2%	3.3	5.4%	.	8.7%
COc1cc(C)nc(N2CCC(C(N)=O)CC2)n1	-35.8%[inhibitor]	3.9	-21.8%	2.1	10.7%	5.4	0.7%
CC(=O)c1cccc(NC(=S)N2CCN(S(C)(=O)=O)CC2)c1	8.5%[15.4 µM]	18.7	-1.0%	.	-1.5%	-1.4	3.8%
Cc1ccc(CNC(=O)c2ccc(C#CC(C)(C)O)s2)cc1	27.3%	-1.8	0.3%	1.1	4.9%	0.3	3.4%
Cc1ccc2c(c1)Oc1ccc(NC(=O)CCCl)cc1C(=O)N2	-5.2%	-9.1	-0.8%	-0.7	-1.2%	-4.4	-2.1%
CCC(CC)C(=O)Nc1nnc(-c2cccs2)s1	-1.2%	0.4	25.1µM*	5.1	-4.7%	-23.3	7.4%
CN(C)c1ccc(C(=O)OCC(=O)Nc2ccc(S(N)(=O)=O)cc2)cc1	12.4%	2.3	-20.5%	1.7	10.9%	-6.2	5.8%

Looked up by structure from the list above, 2 records:
SMILES	gsp ag	TRPV1 potentiator	ClpP mod	Menin MLL FP FL	Sfp PPTase inh	TRPML1 blocker	gsp antagonist
CN(C)c1ccc(C(=O)OCC(=O)Nc2ccc(S(N)(=O)=O)cc2)cc1	12.4%	2.3	-20.5%	1.7	10.9%	-6.2	5.8%
Cc1ccc2c(c1)Oc1ccc(NC(=O)CCCl)cc1C(=O)N2	-5.2%	-9.1	-0.8%	-0.7	-1.2%	-4.4	-2.1%

Screens (PubChem BioAssay)
